# D2 ag: Beta-Arrestin HTS for Positive Allosteric Modulators of the Human D2 Dopamine Receptor: Agonists. activation, % (concentration not given with the values). D(2) dopamine receptor (Homo sapiens), P14416. 360,000 compounds, 0.084% hits. DiscoveRx PathHunter D2 beta-arrestin, luminescence, 90 min; 100% = 57 uM dopamine signal; in the data active = activation above about 40%; inconclusive = about 15% to 40%; inactive = below about 15%; note: the text of the record calls up to 30% inactive
# Target sequence (P14416 whole entry, looked up): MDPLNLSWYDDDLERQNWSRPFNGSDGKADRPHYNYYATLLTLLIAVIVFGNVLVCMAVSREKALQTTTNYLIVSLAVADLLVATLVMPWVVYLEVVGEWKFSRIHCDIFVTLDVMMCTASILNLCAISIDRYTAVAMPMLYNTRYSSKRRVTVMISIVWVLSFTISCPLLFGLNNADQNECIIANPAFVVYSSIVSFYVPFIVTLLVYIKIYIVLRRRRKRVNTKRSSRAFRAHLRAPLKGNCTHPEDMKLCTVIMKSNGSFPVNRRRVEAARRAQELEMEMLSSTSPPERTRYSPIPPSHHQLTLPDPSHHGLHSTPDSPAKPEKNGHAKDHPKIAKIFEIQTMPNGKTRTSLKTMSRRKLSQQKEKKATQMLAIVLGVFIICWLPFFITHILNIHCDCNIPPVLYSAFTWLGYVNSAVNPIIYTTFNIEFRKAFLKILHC
#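 DiscoveRx PathHunter D2 beta-arrestin cells (2,100/well) attached overnight, then compound-stimulated 90 min at 37 C in HBSS/10 mM HEPES/0.1% Tween-20 buffer; beta-galactosidase complementation read by luminescence after 1 h at ambient temperature. Dopamine 57 uM final (EC100) as control.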
# gsp antagonist: qHTS for Antagonists of gsp, the Etiologic Mutation Responsible for Fibrous Dysplasia/McCune-Albright Syndrome: qHTS. gsp-mutant cells, cAMP HTRF, 30 min; control for the full effect not named in the record. Potency, µM (top dose mostly 76.9 µM), for inactives: at the top dose activity change, negative = inhibition, usual class: inhibitors. 340,000 compounds, 0.4% hits. AID 624288, 2012; active = falling curve of any shape with a large fitted effect; inconclusive = falling curve, mostly with a smaller effect; inactive = flat or rising curve; cell line not stated here;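 note: intracellular cAMP measured with PDE inhibitor Ro 20-1724 present during compound exposure; potency is the fitted concentration of half-maximal effect; % is set by controls: 0 for no effect and ±100 for the full control effect; nearly all actives have a fitted effect of over 65% in size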
#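 Measurement of cellular cAMP by homogeneous time-resolved fluorescence following a 30 min compound exposure at 37C. The PDE inhibitor […] was present throughout; the assay buffer was DPBS with 0.05% BSA and 0.005% Tween 20.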
# Six1-Eya2 inh: qHTS Assay for Inhibitors of the Six1/Eya2 Interaction | AlphaScreen GST-Six1/His-Eya2 binding, biochemical; active compounds read low; control for the full effect not named in the record | activity change, % (concentration not given with the values) | 360,000 compounds, 0.56% hits | AID 651725, 2012; in the data active = activity change below about -65%; inconclusive = about -30% to -65%; inactive = above about -30%; note: % is set by controls: 0 for no effect and ±100 for the full control effect
#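 Homogeneous AlphaScreen proximity assay pairing GST-Six1 with His-tagged Eya2 (added as 5X mix: 250 nM and 500 nM) in 50 mM Tris pH 8.0, 300 mM NaCl, 1 mM TCEP. Glutathione donor and nickel acceptor beads; 1 h, 37 °C, dark.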
# D2 PAM: Beta-Arrestin HTS for Positive Allosteric Modulators of the Human D2 Dopamine Receptor: Potentiators; D(2) dopamine receptor (Homo sapiens), P14416; DiscoveRx D2 beta-arrestin cells, luminescence, 90 min; 100% = 57 uM dopamine signal; potentiation, % (test concentration not listed); 360,000 compounds, 0.23% hits; active = potentiation of 50% or more; inconclusive = 30% to 50%; inactive = 30% or less;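 note: compound concentration not given in the record; tested on top of an EC20 dose of dopamine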
#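 PathHunter beta-arrestin assay in DiscoveRx D2 cells. Compounds were added with an EC20 of dopamine (50 nM final) for 90 min at 37 deg C. Luminescence was read 1 h after detection reagent, with 57 uM dopamine as the EC100 control.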
# CtBP-E1A inh: qHTS Assay for Inhibitors of the CtBP/E1A Interaction; CtBP / adenovirus E1A interaction (AlphaScreen); AlphaScreen GST-E1A/His-CtBP binding, 1536-well; active compounds read low; control for the full effect not named in the record; activity change, % (no concentration beside the values); 340,000 compounds, 0.49% hits; AID 651724, 2012; in the data active means activity change below about -65%; inconclusive means about -30% to -65%; inactive means above about -30%; note: % is set by controls: 0 for no effect and ±100 for the full control effect
#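 AlphaScreen with 125 nM GST-E1A and 125 nM His-CtBP (5X stocks) in Tris pH 8.0, 300 mM NaCl, BSA, Tween 20, TCEP. Compounds preincubated 2 h at 37 deg C, then glutathione donor/nickel acceptor beads added for 1 h at 37 deg C in dark.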
# gsp ag: qHTS for Agonist of gsp, the Etiologic Mutation Responsible for Fibrous Dysplasia/McCune-Albright Syndrome: qHTS; gsp mutant cells, cAMP HTRF, 30 min; control for the full effect not named in the record; Potency, µM (titrated, usually from 76.9 µM), inactives show at the highest dose activation (cAMP increase), hits mostly activators; 340,000 compounds, 0.13% hits; active = well fitted activation curve with a large enough effect; inconclusive = small, poorly fitted or top-dose-only effect, or another doubt; inactive = no such curve, though single readings can be large or run the other way; cell line not stated here;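 note: phosphodiesterase inhibitor Ro 20-1724 added with compounds to block cAMP breakdown; potency is the fitted concentration of half-maximal effect; nearly all actives have a fitted effect of over 60% in size; about a fifth of the inactives were tested at one dose only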
#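 Cells stably selected in G418 were plated at 2000/well, grown 16-24 hr, then given compounds in DMSO with the PDE inhibitor […] (300 uM solution added) for 30 min at 37C; cAMP was read by HTRF.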
# Active calls of the source: *; ? = inconclusive; . = not tested or not shown; [ ] = another dose, or the depositor's remark.
No.	molecule	gsp ag	D2 PAM	D2 ag	CtBP-E1A inh	Six1-Eya2 inh	gsp antagonist
1	COc1ccc(C(=O)C2CCCN(C(=O)C3=CCCC3)C2)c(C)c1 (stereo not drawn)	-39%[inhibitor]	-9	-1.7	3	1	-8%
2	O=[N+]([O-])c1cc2c(cc1/C=N/Nc1nc(Nc3ccccc3)nc(N3CCCCC3)n1)OCO2	-7%	-17	-2.4	-6	-12	-2%
3	Cn1cnnc1SCC(=O)NC1CC1	0%	-7	2.1	10	6	10%
4	O=C(NN=C1C2CC3CC1CC(Cl)(C3)C2)c1ccccn1	18%	-9	-2.5	.	-20	-14%
5	O=C1/C(=C/c2ccc(F)cc2)SC(=S)N1CCCC(=O)N1CCCCC1CCO (stereo not drawn)	-44%[inhibitor]	-5	7.1	-9	-3	?
6	COc1ccccc1CNC(=O)[C@H](C)NC(=O)C1CCN(C(=O)[C@@H](N)C(C)C)CC1	.	-23	-4.5	5	6	8%
7	COc1ccc(-n2c(-c3ccc(C)cc3)n[nH]c2=S)cc1	0%	0	3.3	6	-1	-11%
8	CC(=O)c1cccc(NC(=O)c2ccc(C)c(S(=O)(=O)N3CCOCC3)c2)c1	-4%[15.4 µM]	-3	-1.0	-8	-19	-7%
9	O=c1nc2c(-c3cccc(Br)c3)n[nH]n2c2ccccc12	8%[15.4 µM]	0	-2.5	3	9	-6%
10	CC(CCn1cccn1)NC(=O)c1cc(COc2ccc(F)cc2F)on1 (stereo not drawn)	-14%[15.4 µM]	-3	-4.5	-1	5	-12%
11	Cc1ccc(S(=O)(=O)N2CCOC2CNC(=O)C(=O)NCc2ccncc2)cc1 (stereo not drawn)	-4%[15.4 µM]	-3	-1.9	4	0	7%
12	CC(=O)N(C)c1ccc(N=Cc2c(O)ccc3ccccc23)cc1	-17%	1	6.2	9	-2	-1%
13	O=C(NCc1ccncc1)C(=O)NCC1OCCCN1S(=O)(=O)c1ccc(F)cc1 (stereo not drawn)	-2%	3	-1.4	-6	-1	4%
14	Cc1noc(C)c1COC(=O)c1ccc(S(=O)(=O)N2CCCCC2)cc1	?	2	4.5	5	-2	?
15	CCCc1nnc(NC(=O)c2cccc(OC)c2)s1	-3%	-2	-1.2	10	13	-3%
16	CC(=O)Nc1ccc(NC(=O)CN(c2cccc(C)c2)S(C)(=O)=O)cc1	18%	-4	-1.6	10	-1	15%
17	C[C@@H](NC(=O)Cn1cnc2c(NCc3ccccc3)ncnc21)c1cccc2ccccc12	.	-2	0.3	0	-2	-8%
18	CC(C)Oc1cc(NC(=O)CS(=O)CC(=O)Nc2cccc(C(F)(F)F)c2)c(Cl)cc1Cl (stereo not drawn)	-38%[inhibitor]	10	3.5	6	2	-3%
19	COc1ccc(CC2(C)OC(c3ccc(C)cc3)=NN2C(C)=O)cc1 (stereo not drawn)	-2%[15.4 µM]	-11	-3.1	3	1	-22%
20	O=C(O)CCC/C=C\C[C@@H]1[C@@H](/C=C/[C@@H](O)COc2cccc(Cl)c2)[C@H](O)C[C@@H]1O	.	-3	5.6	4	1	0%
21	O=C(O)CCC(=O)c1c[nH]c2ccccc12	-22%	-4	-5.5	3	3	6%
22	C[N+]1(C)CCC(OC(=O)C(O)(c2ccccc2)C2CCCC2)C1 (stereo not drawn)	.	-10	3.0	-1	-4	2%
23	O=C(CN1CCN(C2CCCCC2)CC1)Nc1ccccc1N1CCCCC1	-20%	-32	-3.2	46	-3	1%
24	N#Cc1cc(-c2ccccc2)oc1NC(=O)c1ccccc1	-50%[inhibitor]	-15	-4.4	-9	-14	-11%
25	Cc1nn(-c2ccccc2)c(N)c1Sc1ccccc1[N+](=O)[O-]	21%	-10	-1.0	-11	-20	-1%

# (next part)
No.	molecule	gsp ag	D2 PAM	D2 ag	CtBP-E1A inh	Six1-Eya2 inh	gsp antagonist
26	FC(F)(F)c1ccccc1CNCc1ccc2c(c1)OCO2	18%	-15	-7.2	1	4	4%
27	CN1CCc2c(sc(NC(=O)CS(=O)(=O)c3ccc(F)cc3)c2C(N)=O)C1	7%[15.4 µM]	-18	-5.4	-3	-5	-1%
28	CCOc1ccccc1N(CC(=O)OC)S(=O)(=O)c1ccccc1	3%	-2	-0.9	5	7	-20%
29	O=C(COc1ccc(Cl)cc1Cl)N1CCCCCC1	10%	-10	-2.8	4	4	-1%
30	CCOC(=O)n1cc(-c2cnc(CNC(=O)C(C)(c3ccccc3)c3ccccc3)o2)c2ccccc21	?	-13	-0.7	-2	-13	-15%
31	Fc1ccc(NCc2n[nH]c(=S)n2Cc2ccccc2)cc1	-8%[15.4 µM]	-1	1.1	6	4	3%
32	CN(C)C(=O)c1cc(Cl)ccc1Sc1cc(Cl)ccc1Cl	2%	-29	-2.5	10	-2	-16%
33	CC(=O)Nc1nc(C)c(Oc2cccc(C(F)(F)F)c2)c(=O)[nH]1	-13%[15.4 µM]	-5	-1.3	6	6	-18%
34	Cc1ccc(S(=O)(=O)Nc2cc(C(F)(F)F)ccc2N2CCOCC2)cc1C	-39%[inhibitor]	-3	1.5	1	8	2%
35	COC(=O)Cn1cnc2c(cnn2-c2ccc(OC)cc2)c1=O	?	3	7.9	1	1	-6%
36	CCOC(CNC(=O)c1cc(C)nn1-c1ccccc1)OCC	0%	-6	2.0	3	0	-13%
37	COc1ccc(C(=O)c2ccccc2C(=O)c2ccccc2)cc1	1%	1	0.9	0	8	-6%
38	c1cc(-c2noc(CC3CCCCC3)n2)ccn1	-1%	-16	3.7	11	13	6%
39	CCC(=O)N1CCc2cc(S(=O)(=O)CCC(=O)NC(C)CC)ccc21 (stereo not drawn)	1%	-1	-1.0	-5	10	11%
40	CCCCCOC(=O)Cc1c(O)c2ccccc2[nH]c1=O	8%	-22	-0.8	4	12	10%[15.4 µM]
41	COc1ccccc1CNc1nc2cc(-c3sccc3C)sc2c(=O)n1C	.	-8	-4.0	5	4	.
42	COc1cc(/C=N/NC(=O)c2sc(N)c(C#N)c2C)cc(Br)c1O	11%	5	-4.5	-77*	-67*	-4%
43	COc1ccc(/C=N/NC(=O)c2nn(C)cc2Br)cc1CSCc1ccco1	0%	16	-1.7	-18	-29	-16%
44	CCNc1nc(CSc2ccccc2)nc2sc(C)c(C)c12	-7%[15.4 µM]	-17	1.8	0	41	-10%
45	COc1ccc(NC(=O)CN(c2ccccc2C)S(C)(=O)=O)c(OC)c1	1%	-2	-4.7	-6	4	-11%
46	O=C(Nc1ccncc1)c1cc(F)cc(F)c1	24%	8	-1.2	-1	6	-2%
47	Cc1cc(Cl)ccc1NC(=S)NCc1cccs1	-37%[inhibitor]	-1	-2.9	0	-7	-8%
48	COc1ccc(OC)c(NC(=O)COC(=O)Cn2nnc(-c3ccccc3)n2)c1	-12%	-1	-0.5	0	3	7%
49	O=C1CCC/C1=C\Nc1ccc(Cl)c([N+](=O)[O-])c1	3%[15.4 µM]	2	-4.9	-2	12	-15%
50	CCOC(=O)c1c(NC(=O)C2CCCO2)sc(C(=O)OC(C)(C)C)c1C (stereo not drawn)	-4%	-2	-2.4	0	3	9%

# Entries listed so far that contain a furan ring, fused or not (2):
No.	molecule	gsp ag	D2 PAM	D2 ag	CtBP-E1A inh	Six1-Eya2 inh	gsp antagonist
24	N#Cc1cc(-c2ccccc2)oc1NC(=O)c1ccccc1	-50%[inhibitor]	-15	-4.4	-9	-14	-11%
43	COc1ccc(/C=N/NC(=O)c2nn(C)cc2Br)cc1CSCc1ccco1	0%	16	-1.7	-18	-29	-16%

# Next section.
No.	molecule	gsp ag	D2 PAM	D2 ag	CtBP-E1A inh	Six1-Eya2 inh	gsp antagonist
51	CCCn1c2ccccc2c2cnn(CC(=O)NCCCN3CCN(c4ccccc4)CC3)c(=O)c21	22%	-32	-0.4	-24	-14	3%
52	FC(F)(F)c1cc(-c2ccco2)nc(-n2nnc3ccccc32)n1	19%	-18	-0.9	-6	5	-10%
53	CCOc1ccccc1NC(=O)CN(c1ccc(C)cc1)S(=O)(=O)c1c(C)noc1C	-42%[inhibitor]	-5	-4.3	2	0	1%
54	CCC1CCCCN1C(=O)CSc1nc(N)c(NC(=O)c2ccc(OC)c(OC)c2)c(=O)[nH]1 (stereo not drawn)	-39%[inhibitor]	-3	-3.0	2	-3	10%
55	C=C(C)Cn1c(NCCC)nc2c1c(=O)n(C)c(=O)n2C	1%	-11	-5.1	-1	3	5%
56	CC(=O)Oc1ccc(C(=O)[C@H]2[C@H]3C(=O)N(c4cccc5ccccc45)C(=O)[C@H]3[C@@H]3C=CC=NN32)cc1	5%	3	-4.8	3	?	-19%
57	CCC(=O)Nc1c(-c2ccccc2)c(=O)c2ccccc2n1C	-14%[15.4 µM]	-14	-1.9	-1	18	-16%
58	CC(=O)C1[C@H](N(C)C)CC2C3CC=C4CC(O)CC[C@]4(C)C3CC[C@@]21C (stereo partly drawn)	?	-6	1.8	-22	-4	-10%
59	COc1ccc(-c2noc(CCCC(=O)N3CCOCC3)n2)cc1	?	-3	13	-16	-15	2%
60	C[C@H]1CN=C(Nc2ccccc2)N1CCC1CCCCC1	3%	-27	-2.9	-1	1	10%
61	O=C1CCCN1c1ccc(S(=O)(=O)N2CCN(c3ccccc3)CC2)cc1	-2%[15.4 µM]	-7	-4.3	.	8	6%
62	CC1(O)N(Cc2ccccc2)C(=O)OC12CCCCC2 (stereo not drawn)	-36%[inhibitor]	-6	-3.4	0	-11	7%
63	CCN(C(=S)Nc1cccc(C)c1)c1ccccc1	6%	-7	2.7	4	2	9%
64	O=C(/C=C/c1ccccc1[N+](=O)[O-])OC1CCCCC1=O (stereo not drawn)	-5%	-10	4.1	4	3	11%
65	O=C(CC1CCCC1)N1CCCC(Nc2ccc(F)cc2)C1 (stereo not drawn)	-33%[inhibitor]	-1	1.2	1	-8	6%
66	Cc1ccc(Oc2c(CO)c(-c3ccccc3)nn2C)cc1	-1%	-5	1.0	0	-3	0%
67	CCN(C(=O)CSc1nc(-c2cccs2)nc2ccccc12)C1CCS(=O)(=O)C1 (stereo not drawn)	-1%[15.4 µM]	-37	-3.2	-20	-17	-14%
68	CSc1ccccc1NS(=O)(=O)c1ccc2c(c1)OCCO2	-34%[inhibitor]	-10	3.1	9	5	-25%
69	Cc1c(CC(C)C)nc(N)c(C#N)c1-c1ccccc1	-59%[inhibitor]	-7	-1.2	3	6	10%
70	O=C1C=C(c2ccc(-c3ccccc3)cc2)C[C@@H](c2ccc3c(c2)OCO3)C1	.	2	-0.6	10	5	-1%
71	CCOc1ccc(S(=O)(=O)N/N=C(\C)c2ccc3c(c2)OCO3)cc1	13%	-6	-1.4	2	-5	-3%

# Screening data as filed in PubChem BioAssay.
